Assay outcomes from PubChem BioAssay.
NPYLR7 agonist: agonists of mosquito NPYLR7 receptor, primary screen, cell-based, Aedes aegypti, calcium fluorescence, mosquito biting behavior; Aedes aegypti neuropeptide Y-like receptor 7 (NPYLR7); HEK293T NPYLR7/Galpha15, GCaMP6s calcium fluorescence; activation, % at 10 µM; 270,000 compounds, 0.15% hits; AID 1259423, 2018; in the data active = activation above about 40%;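 note: 0% = vehicle and 100% = reference agonist at the receptor; some compounds past the cut are filed as inactive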
NPYLR7 agonist max-min: further read-out of NPYLR7 agonist, marked with its call; activation, %; measured here: Max-Min RFU normalised activation; some inactives read as strong as hits;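 span of the calcium signal over five minutes; 0% = vehicle and 100% = native peptide agonist; compound fluorescence can raise it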
An asterisk follows results filed as active; & = joins results of further samples.

`CCc1nc(CCNC(=O)[C@@]23CNC[C@@H]2CN(C2CCCC2)C3)no1` gave NPYLR7 agonist 7 and NPYLR7 agonist max-min -8.
Screening COc1ccc(-c2cc(NC(=O)CCC3CCCC3)n(-c3cc(Cl)ccc3Cl)n2)cc1 returned NPYLR7 agonist 18 and NPYLR7 agonist max-min 4.
CC1CCN(C(=O)CSc2ccc(NC(=O)c3cccs3)nn2)CC1 was read as NPYLR7 agonist -6 and NPYLR7 agonist max-min -9.
CCOC(=O)/C=C(\C)N1N=C(c2ccccc2)CC1c1ccccc1[N+](=O)[O-] (stereo not given) was read as NPYLR7 agonist -7 and NPYLR7 agonist max-min -11.
Screening CCCN(CCC)[P+](Nc1n[nH]c(=O)[nH]c1=O)(N(C)C)N(CCC)CCC returned NPYLR7 agonist -3 and NPYLR7 agonist max-min -1.
Cc1cc(C(C)C(=O)N(C)c2ccc(Br)cn2)c(C)o1 (stereo not given) was read as NPYLR7 agonist 7 and NPYLR7 agonist max-min 4.
COc1cccc(CNC(=O)C2CCN(C(=O)[C@@H]3CCCN3C(=O)COC3C[C@@H](C)CC[C@@H]3C(C)C)CC2)c1 (stereo not given in full) was read as NPYLR7 agonist 29 and NPYLR7 agonist max-min 22.
CCCCS(=O)CC(COC(=O)c1ccc(C)cc1)S(=O)CCCC (stereo not given) was read as NPYLR7 agonist 1 and NPYLR7 agonist max-min 30.
CN(C)[C@@H]1C(=O)C(C(N)=O)C(=O)[C@@]2(O)C(=O)C3=C(O)c4c(O)ccc(Cl)c4[C@@H](O)[C@H]3C[C@@H]12 (stereo not given in full) was read as NPYLR7 agonist 0&-9&-4&-2 and NPYLR7 agonist max-min -7&-16&-7&-23.
Cc1ccnc(SCCn2c(N3CCN(c4ccccc4F)CC3)nc3c2c(=O)[nH]c(=O)n3C)n1 was read as NPYLR7 agonist 3 and NPYLR7 agonist max-min 63.
Screening O=C(Nc1ccc(-c2ccn[nH]2)cc1)C1CCCN(Cc2ccc3nonc3c2)C1 (stereo not given) returned NPYLR7 agonist 7 and NPYLR7 agonist max-min 2.
CCN(C)S(=O)(=O)NCC1CCN(Cc2cccc(C)n2)C1 (stereo not given) was read as NPYLR7 agonist -1 and NPYLR7 agonist max-min 2.
CN(CCc1ccccc1)CCc1ccccc1 was read as NPYLR7 agonist -3 and NPYLR7 agonist max-min -16.
For CCn1ccc(-c2c(-c3ccccc3)ncn2Cc2cccnc2-n2cncn2)n1 the results were NPYLR7 agonist 10 and NPYLR7 agonist max-min 7.
For Cc1noc(-c2cccnc2)c1C(=O)N1CCCC(CCc2ccc(C(C)(C)C)cc2)C1 (stereo not given) the results were NPYLR7 agonist 23 and NPYLR7 agonist max-min 9.
Screening COc1ccc(S(=O)(=O)NCc2ccco2)cc1OC returned NPYLR7 agonist 1 and NPYLR7 agonist max-min 5.
`Cc1ccc(C(C2Sc3nc(C)nn3C2=O)N2CCC(C(N)=O)CC2)cc1` (stereo not given) gave NPYLR7 agonist -1 and NPYLR7 agonist max-min -1.
For Nc1nc2n(n1)C(c1ccc(F)cc1)CC(c1ccc(F)cc1)N2 (stereo not given) the results were NPYLR7 agonist 1 and NPYLR7 agonist max-min -1.
`O=C(Nc1ccc(F)cc1)N(Cc1ccc(F)cc1)C1CC1` gave NPYLR7 agonist 10 and NPYLR7 agonist max-min 3.
O=C(CSc1ncccn1)N1CCCC(CO)(CCc2ccccc2)C1 (stereo not given) was read as NPYLR7 agonist 9 and NPYLR7 agonist max-min 4.

The closing 2 entries of the section before open the next one.
`O=C(Nc1ccc(F)cc1)N(Cc1ccc(F)cc1)C1CC1` gave NPYLR7 agonist 10 and NPYLR7 agonist max-min 3.
O=C(CSc1ncccn1)N1CCCC(CO)(CCc2ccccc2)C1 (stereo not given) was read as NPYLR7 agonist 9 and NPYLR7 agonist max-min 4.
CCOc1ccc(NC(=O)CSc2nc(=O)n(CCN3CCOCC3)c3c2CCC3)cc1 was read as NPYLR7 agonist 2 and NPYLR7 agonist max-min -1.
`CCc1ccc[n+](C2=C(c3c(C(C)C)[nH]n(-c4ccccc4)c3=O)C(=O)N(c3ccc(F)cc3)C2=O)c1` gave NPYLR7 agonist -2 and NPYLR7 agonist max-min 5.
For COc1ccc2nc(-c3ccc(Cl)c(F)c3)n(Cc3ccccc3)c(=O)c2c1 the results were NPYLR7 agonist 4 and NPYLR7 agonist max-min 0.
`CC1(C(=O)NCCc2c[nH]c3ccccc23)CCN1Cc1ccc2ccccc2c1` (stereo not given) gave NPYLR7 agonist -2 and NPYLR7 agonist max-min -8.
`Cc1ncsc1CCC(=O)N(C)Cc1csc(C(C)C)n1` gave NPYLR7 agonist -8 and NPYLR7 agonist max-min -11.
Screening CN(Cc1cccnc1)c1ccc2c(-c3ccccc3F)noc2n1 returned NPYLR7 agonist 4 and NPYLR7 agonist max-min -1.
`Cc1cc(C)n2nc(C)c(C(=O)N(C)c3cc(F)ccc3F)c2n1` gave NPYLR7 agonist 6 and NPYLR7 agonist max-min 1.
`C=CCOC(=O)C1=C(C)N=c2sc(=Cc3ccc([N+](=O)[O-])cc3)c(=O)n2C1c1ccccc1` (stereo not given) gave NPYLR7 agonist -8 and NPYLR7 agonist max-min -15.
`COC(=O)C1C(C(=O)OC)C2(OC(c3ccccc3)=CC2=O)C12OC(c1ccccc1)=CC2=O` (stereo not given) gave NPYLR7 agonist -7 and NPYLR7 agonist max-min -11.
Screening c1ccc2c(c1)CCCN2c1nc2ccccc2n2nnnc12 returned NPYLR7 agonist 3 and NPYLR7 agonist max-min 6.

Continued, overlapping the part above by 2 compounds.
`COC(=O)C1C(C(=O)OC)C2(OC(c3ccccc3)=CC2=O)C12OC(c1ccccc1)=CC2=O` (stereo not given) gave NPYLR7 agonist -7 and NPYLR7 agonist max-min -11.
Screening c1ccc2c(c1)CCCN2c1nc2ccccc2n2nnnc12 returned NPYLR7 agonist 3 and NPYLR7 agonist max-min 6.
`Cn1c(SCCC23CC4CC(CC(C4)C2)C3)nnc1-c1cccnc1` gave NPYLR7 agonist -1 and NPYLR7 agonist max-min -3.
CC1CCN(Cc2csc(NC(=O)c3cc(Br)ccc3F)n2)CC1 was read as NPYLR7 agonist 0 and NPYLR7 agonist max-min 18.
`COc1ccccc1C1CC(c2ccc(C)cc2)=NN1C(=O)CN(C)c1ccccc1` (stereo not given) gave NPYLR7 agonist 14 and NPYLR7 agonist max-min 11.
Screening COc1cc(C(=O)N2CCc3sccc3C2)ccc1OC1CCN(C(C)=O)CC1 returned NPYLR7 agonist -2 and NPYLR7 agonist max-min -7.
`Cc1ccc(Cn2nc(-c3cccs3)c3sc(N4CCCC4)nc3c2=O)cc1` gave NPYLR7 agonist -2 and NPYLR7 agonist max-min -9.
Screening CCN1C(=O)C(=Cc2cc(C)n(CC(F)(F)F)c2C)SC1=S returned NPYLR7 agonist -7 and NPYLR7 agonist max-min -12.
For CN(CC(=O)NCC(=O)N1CCCC1)Cc1cc(Br)cs1 the results were NPYLR7 agonist -8 and NPYLR7 agonist max-min -9.
For CN1Cc2ccccc2CC1C(=O)O (stereo not given) the results were NPYLR7 agonist -11 and NPYLR7 agonist max-min -18.
`COc1ccccc1CN1CNC(=S)NC1` gave NPYLR7 agonist -11 and NPYLR7 agonist max-min -19.
`CC(=O)c1cccc(-c2ccc(CN3CCCC3)cc2)c1` gave NPYLR7 agonist -4 and NPYLR7 agonist max-min -7.
`CC(=O)c1ccc(S(=O)(=O)N(C)Cc2c(Cl)cccc2Cl)cc1` gave NPYLR7 agonist 9 and NPYLR7 agonist max-min 8.
Screening CCOC(=O)c1cc(C(C)(C)C)n(C2CCN(C(=O)c3ccc(F)c(OC)c3)CC2)n1 returned NPYLR7 agonist 9 and NPYLR7 agonist max-min 9.
COc1cccc(OC)c1C(=O)N1CCN(C(=O)CCCSc2nnc(Cc3ccccc3)n2-c2ccccc2)CC1C (stereo not given) was read as NPYLR7 agonist -4 and NPYLR7 agonist max-min 4.
For Cc1cccc(CN2CCCC3(CCN(c4nc5ccccc5s4)C3)C2=O)c1 (stereo not given) the results were NPYLR7 agonist 0 and NPYLR7 agonist max-min -6.
For CSc1cccc([C@@H]2C[C@H]3CN(Cc4cccc(Cl)c4)C(=O)[C@]34CCCN24)c1 the results were NPYLR7 agonist 6 and NPYLR7 agonist max-min 9.
CCOc1ccc(N(Cc2nnc3n2CCCCC3)C(=O)Nc2ccccc2OC)cc1 was read as NPYLR7 agonist 1 and NPYLR7 agonist max-min 1.
Screening N#CCSc1ncnc2sc3c(c12)CCCC3 returned NPYLR7 agonist 4 and NPYLR7 agonist max-min 2.
CC(C)N(Cc1nccn1C)C(=O)CCc1nnc(C2(c3ccc(Cl)cc3)CCC2)o1 was read as NPYLR7 agonist -1 and NPYLR7 agonist max-min -3.
`CCN1CCN(CC(O)COC23CC4CC(CC(C4)C2)C3)CC1` (stereo not given) gave NPYLR7 agonist 17 and NPYLR7 agonist max-min 12.
`CC(C#N)CNC(=O)OC(C)(C)C` (stereo not given) gave NPYLR7 agonist -8 and NPYLR7 agonist max-min 779.

The list goes on, starting with the last 4 of the part before.
Screening N#CCSc1ncnc2sc3c(c12)CCCC3 returned NPYLR7 agonist 4 and NPYLR7 agonist max-min 2.
CC(C)N(Cc1nccn1C)C(=O)CCc1nnc(C2(c3ccc(Cl)cc3)CCC2)o1 was read as NPYLR7 agonist -1 and NPYLR7 agonist max-min -3.
`CCN1CCN(CC(O)COC23CC4CC(CC(C4)C2)C3)CC1` (stereo not given) gave NPYLR7 agonist 17 and NPYLR7 agonist max-min 12.
`CC(C#N)CNC(=O)OC(C)(C)C` (stereo not given) gave NPYLR7 agonist -8 and NPYLR7 agonist max-min 779.
For O=S(=O)(c1ccccc1F)N1CCC(Cc2ccc(-c3ccccc3)cc2)CC1 the results were NPYLR7 agonist 0 and NPYLR7 agonist max-min 3.
Screening COc1cccc(CN(CC2CC(c3ccc(Cl)c(Cl)c3)=NO2)C(=O)c2cccs2)c1 (stereo not given) returned NPYLR7 agonist 5 and NPYLR7 agonist max-min 6.
Screening CCc1nnc(NC(=O)CCCN2C(=O)NC(C)(C)C2=O)s1 returned NPYLR7 agonist -3&-1 and NPYLR7 agonist max-min -4&-3.
Screening COc1ccc(CN2CCCCCC2)cc1OCC(O)CN1CCCCCCC1 (stereo not given) returned NPYLR7 agonist 15 and NPYLR7 agonist max-min 4.
CC(C)(C(=O)NCc1ccc(C(N)=O)o1)c1ccc(F)cc1 was read as NPYLR7 agonist 0 and NPYLR7 agonist max-min 0.
`COc1cc(/C=C2\C(=O)N(c3ccc(Cl)c(C(=O)O)c3)N=C2C)c([N+](=O)[O-])cc1OC` gave NPYLR7 agonist -5 and NPYLR7 agonist max-min -17.
For Cc1ccc(-c2noc(CCNC(=O)c3cc(C4CC4)[nH]n3)n2)cc1 the results were NPYLR7 agonist -5 and NPYLR7 agonist max-min -6.
For Cc1cccc(NC(=O)Nc2cn(C)c3ccccc23)n1 the results were NPYLR7 agonist -3 and NPYLR7 agonist max-min -4.
CCOc1ccc(Oc2cc(C)nc(SC)n2)nn1 was read as NPYLR7 agonist -1 and NPYLR7 agonist max-min -3.
CC1CCCCN1CCCNC(=O)Cc1csc(NC(=O)CN(C(=O)c2ccccc2)C(C)C)n1 (stereo not given) was read as NPYLR7 agonist -2 and NPYLR7 agonist max-min 6.
`Cc1cc(C)cc(-n2nnc3c(=O)n(Cc4ccccc4)cnc32)c1` gave NPYLR7 agonist -1 and NPYLR7 agonist max-min -6.
Screening CCOC(=O)c1[nH]c(C)c(C(=O)CN(C(=O)c2ccc(OC)cc2OC)C2CC2)c1C returned NPYLR7 agonist -10 and NPYLR7 agonist max-min -4.
Screening CC(=O)N(C)Cc1ccccc1NC(=O)c1ccc2c(c1)Cc1ccccc1-2 returned NPYLR7 agonist 11 and NPYLR7 agonist max-min 7.
CN(CC1CCCCO1)C(=O)c1cn[nH]c1-c1cccc(F)c1 (stereo not given) was read as NPYLR7 agonist 17 and NPYLR7 agonist max-min 12.
Screening NC(=O)c1ccc(N=Nc2c(-c3ccccc3)[nH]n(-c3ccc([N+](=O)[O-])cc3)c2=O)cc1 returned NPYLR7 agonist -7 and NPYLR7 agonist max-min -11.
`CCS(=O)(=O)NC1CCN(c2ccccc2C(=O)N(C)Cc2ccco2)CC1` gave NPYLR7 agonist -2 and NPYLR7 agonist max-min -1.
NS(=O)(=O)c1ccc(Cn2ccnc2-c2cccc(F)c2F)cc1 was read as NPYLR7 agonist 0 and NPYLR7 agonist max-min -5.
Screening CCN(CC)Cc1cnc2c(C(=O)N3CCCOCC3)cnn2c1 returned NPYLR7 agonist 10 and NPYLR7 agonist max-min 8.
Screening Fc1ccc(C(NCc2ccnc(Cl)c2)C2CCC2)cc1 (stereo not given) returned NPYLR7 agonist -1 and NPYLR7 agonist max-min 0.
For Cc1cc2cc(C(=O)N3CCC4(CCCN(CC5CC5)C4)C3)ccc2o1 (stereo not given) the results were NPYLR7 agonist -3 and NPYLR7 agonist max-min -10.
CC(=O)[C@@H]1C[C@H](CC(=O)N2CCC(c3ccccc3)CC2)C1(C)C was read as NPYLR7 agonist -1 and NPYLR7 agonist max-min -2.

Some of the compounds tested; rates above refer to the full screens.
